# Sa RN4220 lethal – S. aureus RN4220 growth inhibition. AID 1259311. inhibition, % (test concentration not listed). 330,000 compounds, 0.33% hits. OD600, 16 h;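 active means z-score of -3 or lower and OD600 up to 0.18 on both plates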;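 further: plate controls were untreated cells for no effect and reference antibiotic for full effect; stock transfer was 100 nL into about 80 µL; one replicate is shown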
# Bead autofluor – compound fluorescence in toxin protease inhibitor counterscreen; compound autofluorescence counterscreen, microsphere flow cytometry; stronger effect = higher value; 360,000 compounds, 3.1% hits; fluorescence intensity (test concentration not listed);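 active means at least 3 SD above the mean of all compounds, about 16000 in these data; inconclusive means too few beads counted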;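 further: 100 nL of 1 mM stock went into each well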
# BJeLR lethal – BJeLR cell viability loss; BJeLR (HRASV12) viability, CellTiter-Glo ATP luminescence, 48 h; reference of the scale not given here; inhibition, % (concentration not given with the values); 300,000 compounds, 0.17% hits; AID 1554;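 active means replicate mean above 50%; inconclusive means above 50% but judged a plate artefact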;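 further: 50 nL library stock added to about 25 µL; numbers are from one replicate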
# PrP UTR inh – inhibition of PrP 5' UTR reporter expression. 340,000 compounds, 0.35% hits. inhibition, % (no concentration beside the values). cell-based PrP 5' UTR mRNA reporter, plate reader. AID 488862;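 active means every replicate at 50% or more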;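 further: 0 = median of the neutral control wells; tested in H4 reporter cells; numbers are from one replicate; inactives centre near -14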
# Mtb hypoxia rep – reduces hypoxia-regulated biosensor signal in M. tuberculosis. 300,000 compounds, 0.1% hits. fluorescence inhibition, % (no concentration beside the values). M. tuberculosis hypoxia-regulated fluorescent reporter, fluorescence;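 active means 35 to 45% if threefold the growth effect, above 45% if 1.5-fold the growth effect; inactive means the rest, general growth blockers included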;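 further: wells of about 50 µL received 100 nL stock; 0% = vehicle wells and 100% = reference inhibitor wells; whole bacteria with a GFP reporter of the hypoxia response; strong numbers were not always called active; many hits fall short of the cut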
# ugtP null kill – growth inhibition of S. aureus ugtP deletion strain; growth inhibition, % (test concentration not listed); AID 1259309; 330,000 compounds, 0.54% hits; S. aureus RN4220 ugtP deletion, OD600 growth, 16 h; some inactives read as strong as hits;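 active means z-score under -3 and OD600 up to 0.15 on both plates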;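 further: plate controls were untreated wells for no effect and antibiotic for full effect; wells of about 80 µL received 100 nL stock; the first replicate is given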
# Mtb hypoxia rep growth – second read-out of Mtb hypoxia rep, no call of its own (marks repeat the call); growth inhibition, %; measured here: M. tuberculosis growth (absorbance);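 0% = vehicle and 100% = reference antibiotic; read after six days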
# * = called active by the depositor; ? = inconclusive; nt = not tested or not shown.
Compound	Sa RN4220 lethal	Bead autofluor	BJeLR lethal	PrP UTR inh	Mtb hypoxia rep	Mtb hypoxia rep growth	ugtP null kill
COc1ccccc1NC(=O)CC1C(=O)Nc2c1c(=O)n(C)c(=O)n2C (stereo unspecified)	2.4	3388	4	-12	-1	7	3
NC(=NO)c1ccccc1N1CCCCC1	0.6	nt	nt	nt	5	1	2
COc1ccc(CCNC(=O)c2ccc(CS(=O)(=O)c3ccc(Br)cc3)o2)cc1OC	3.2	1980	1	-4	0	13	10
CCOC(=O)c1ccccc1NC(=O)c1cc2ccccc2o1	4.9	3930	6	19	10	1	7
Cc1nnc(C)n1/N=C/c1ccc(C(C)C)cc1	nt	10774	14	-14	nt	nt	nt
COc1ccc2c(c1)CCc1c(C(=O)N(C)c3ccccc3)noc1-2	6.3	4239	3	-40	14	10	8
Cc1ccc(NC2=CC(=O)CCC2)cc1C	7.5	5184	-9	-29	4	7	-5
Cc1oc2ccc(OC(C(=O)O)c3ccccc3)cc2c1C(=O)O (stereo unspecified)	4.6	3232	-2	-18	15	12	19
Cc1ccc(NC(=O)CN2C(=O)/C(=C3\SC(=S)N(C4CCS(=O)(=O)C4)C3=O)c3ccccc32)cc1 (stereo unspecified)	5.5	10758	nt	-10	14	3	-3
CCCCOC(=O)CCc1c(C)n[nH]c1C	1.1	6307	1	-24	7	5	0
O=C(/C=C/c1cccc([N+](=O)[O-])c1)OCC(=O)N1CCOCC1	5.7	6575	nt	-5	5	4	5
Cc1cccc(N2CCN(C(=O)CCc3nc4ccccc4c(=O)[nH]3)CC2)c1C	4.1	3497	nt	-14	3	8	4
Cc1ccc(NC(=O)CS(=O)CC(=O)N(c2ccccc2)C(C)C(=O)NC2CCCC2)cc1 (stereo unspecified)	7.5	10572	-8	-6	11	5	-4
Fc1ccc(CCNCc2ccccc2Cl)cc1	3.4	8586	-2	-30	3	12	-1
COc1ccc(-c2nc(C#N)c(N3CCCCCC3)o2)cc1OC	10	10341	-1	1	-4	12	-6
Cc1noc(NS(=O)(=O)c2ccc(N/C=C/C(=O)c3ccc(F)cc3)cc2)c1C	0.4	2196	-3	-10	0	7	9
N#CC1CCN(C(=O)c2ccc3c(Cl)c4c(nc3c2)CCCC4)CC1	7.8	5929	8	-22	-4	2	-6
CC(C)(C)c1ccc(Cn2c(=N)n(CC(O)c3ccco3)c3ccccc32)cc1 (stereo unspecified)	-4.6	9152	10	-8	9	36	-12
Cc1c(C(=O)NCCN2CCOCC2)sc2nc(-c3ccc(F)cc3)cn12	8.0	9978	5	-24	7	5	-1
O=C(NCc1ccccc1)c1noc2c1CCCCC2	-0.7	16329*	3	-89	4	6	1
O=C(COc1ccc(OCc2ccccc2)cc1)NC1CCOC1=O (stereo unspecified)	-2.2	4588	11	-20	nt	nt	-2
COc1ccc(C2N3CC4(C)CN2CC(C)(C3)C4O)cc1 (stereo unspecified)	-8.5	4714	2	-28	7	2	3
Cc1cc(C)c(OCC(=O)OCC(=O)NCc2cccs2)c(C)c1	1.1	4561	-12	-11	1	-1	7
CC(OC(=O)c1ccc2ccccc2c1)C(=O)N(C)Cc1ccccc1 (stereo unspecified)	13	2910	nt	-42	6	-1	19
NNC(=O)c1cncc(Br)c1	1.1	nt	-27	-21	14	2	10
COC(=O)C1=C(c2ccc(S(C)(=O)=O)cc2)C[C@@H]2CC[C@H]1N2C(=O)NCC1CC1	nt	4057	-1	-16	nt	nt	nt
O=C(O)c1ccc(N2C(=O)/C(=C\c3ccccc3)N=C2c2ccccc2)cc1	9.2	5913	-11	-2	-6	2	11
CC1CN(c2nc(-c3ccc(Br)cc3)nnc2-c2ccccc2)CC(C)N1 (stereo unspecified)	2.6	3982	7	1	nt	nt	1
Cc1cc(OCC(=O)NCc2ccncc2)ccc1Cl	3.7	2574	-10	-11	7	3	-3
COCCCN1CC23C=CC(O2)C(C(=O)O)C3C1=O (stereo unspecified)	-0.4	5894	1	0	nt	nt	4

# Single entries from above:
# `O=C(/C=C/c1cccc([N+](=O)[O-])c1)OCC(=O)N1CCOCC1` @ Sa RN4220 lethal = 5.7
# `Fc1ccc(CCNCc2ccccc2Cl)cc1` @ Mtb hypoxia rep growth = 12

# Complete entries, looked up by structure.
# `CC(OC(=O)c1ccc2ccccc2c1)C(=O)N(C)Cc1ccccc1` (stereo unspecified) across the screens: Sa RN4220 lethal = 13; Bead autofluor = 2910; BJeLR lethal = nt; PrP UTR inh = -42; Mtb hypoxia rep = 6; Mtb hypoxia rep growth = -1; ugtP null kill = 19
# `O=C(O)c1ccc(N2C(=O)/C(=C\c3ccccc3)N=C2c2ccccc2)cc1` across the screens: Sa RN4220 lethal = 9.2; Bead autofluor = 5913; BJeLR lethal = -11; PrP UTR inh = -2; Mtb hypoxia rep = -6; Mtb hypoxia rep growth = 2; ugtP null kill = 11

# Remaining list, next part:
Compound	Sa RN4220 lethal	Bead autofluor	BJeLR lethal	PrP UTR inh	Mtb hypoxia rep	Mtb hypoxia rep growth	ugtP null kill
CCCn1cnc2c(cnn2-c2ccc(F)cc2)c1=O	13	2414	1	-28	7	6	1
O=S(=O)(c1ccc(Cl)c(NC(=S)N/N=C/c2c(F)cccc2F)c1)N1CCOCC1	nt	3954	-3	-15	nt	nt	nt
CC[C@]12C(=O)N(C)CC(C3C(=O)N(C)C(=O)C31)N2C(=O)c1ccc(C(C)(C)C)cc1 (stereo partly specified)	5.0	nt	nt	nt	19	5	2
CCOc1ccccc1C(=O)N(C)CC(=O)Nc1ccc(OC)cc1	3.9	3143	-4	-21	17	3	14
Cc1ccccc1C(=O)Nc1ccc(O)c2c(=O)cc(-c3ccccc3Cl)oc12	-1.5	2974	-15	-19	15	12	4
CC(=O)OC1C2CCC1C([N+]1(C)CCCCC1)CC2 (stereo unspecified)	3.3	4293	1	-18	5	2	7
COc1ccc(S(=O)(=O)Cc2ccc(C(=O)NC3CCCCC3)o2)cc1	4.5	4308	-9	-5	-4	-8	14
O=C(Nc1cccnc1)c1ccc(-c2ccccc2)cc1	1.6	2199	9	-121	0	-4	0
CC1(C2CC2)NC(=O)N(CC(=O)Nc2ccc(Cl)c([N+](=O)[O-])c2)C1=O (stereo unspecified)	2.3	5682	nt	-9	2	4	1
O=C1OCC2=C1C(c1ccccc1)CC(=O)N2c1cccc(F)c1 (stereo unspecified)	11	4386	-2	-4	0	2	3
Cc1cccc(C(=O)N2N=C(c3ccc(NS(C)(=O)=O)cc3)CC2c2cccs2)c1 (stereo unspecified)	4.9	3031	-16	-14	1	-2	13
CCOC(=O)c1c(CC(C)C)csc1NC(=O)CCl	9.7	4417	4	8	12	16	49
Cc1nc2nc[nH]n2c(=O)c1NS(C)(=O)=O	2.3	3774	0	-9	4	2	9
COCCNC(=O)C1CCC(CNS(=O)(=O)c2c(C)cc(C)cc2C)CC1 (stereo unspecified)	1.7	2950	7	0	8	-6	0
COc1ccc(NS(=O)(=O)c2cc(NC(=O)c3ccc(C)s3)ccc2N2CCOCC2)cc1	5.1	3547	12	7	-10	6	9
CCCc1[nH]nc2c1C(c1ccccc1OC)C(C#N)=C(N)O2 (stereo unspecified)	2.2	6923	-8	3	-3	-2	9
c1ccn2c(c1)nc1c2nc2ccccn21	2.1	21237*	4	-31	0	6	1
O=C(NC12CC3CC(CC(C3)C1)C2)c1cncc(Br)c1	2.6	3041	7	-6	13	3	-5
COc1ccc(N2CCN(C(=O)c3ccc4nc(N5CCCCC5)sc4c3)CC2)cc1	-0.1	5958	3	-18	nt	nt	5
COc1ccccc1NC(=O)COc1cccnc1[N+](=O)[O-]	-0.5	8749	nt	-19	3	2	0
COc1ccc(N2CCN(c3nc4ccccn4c(=O)c3C=O)CC2)cc1	4.9	2042	-21	-6	-1	2	3
O=C1c2ccccc2C(Nc2ccccc2)N1c1cccnc1 (stereo unspecified)	2.6	5558	-27	-13	7	6	9
Cc1cc(C(=O)N2CCCC(N3CCN(c4cccc(Cl)c4)CC3)C2)nc(C)n1 (stereo unspecified)	3.1	5433	6	-24	0	4	1
O=C(Nc1nc(-c2cccs2)cs1)c1cccc(S(=O)(=O)N2CCCCCC2)c1	21	3918	7	-35	nt	nt	2
Cn1c(O)c(C=Nc2ccccc2-c2ccccc2)c(=O)n(C)c1=O	0.4	6226	-9	-9	9	3	4
COc1ccc(Br)c(C(=O)Nn2c(C)nc3ccccc3c2=O)c1	35	9677	1	-11	6	5	0
COc1ccc(/C=N/NC(=O)c2ccc(O)cc2)cc1CN1CCCc2ccccc21	nt	6474	-3	-21	nt	nt	nt
CC(C)n1c(NCc2cccs2)nc2ccccc21	-0.9	11279	-1	-22	8	5	4
COc1ccc(F)c(-c2nc(CN3CCC(c4ccccc4)CC3)c(C)o2)c1	-2.4	4527	1	-25	-7	7	-9
CCOc1ccc(S(=O)(=O)N2CCN(C(=O)c3ccc(C)c(S(=O)(=O)N4CCOCC4)c3)CC2)cc1	-0.1	8339	nt	3	-9	6	-2
CCC(=O)N1CCN(c2ccc(Cl)cc2NC(=O)c2cccc([N+](=O)[O-])c2)CC1	0.2	5082	14	-26	6	0	0
COC(=O)NN=Cc1ccc(OC/C=C/c2ccccc2)cc1	4.8	nt	nt	nt	13	3	12
CCN1CCN(C(=O)c2ccc(COc3cccc(Cl)c3)o2)CC1	1.3	5977	21	-6	13	0	-1
FC(F)Oc1ccc(NC(=S)NCC2COc3ccccc3O2)cc1 (stereo unspecified)	-1.4	2516	2	-19	4	2	-6
CCc1c(C(=O)O)[nH]c2ccc(Br)cc12	-2.4	4149	5	-11	nt	nt	62
O=C(CSc1nc(O)c(-c2ccccc2)c(=O)[nH]1)N1CCOCC1	4.7	3781	11	15	8	7	3
CC(C)C1CC(C(=O)Nc2ccccc2)C(=O)O1 (stereo unspecified)	2.6	3773	-4	-38	-3	-1	1
Cc1ccc(CSC(Nc2ccc(F)cc2)=C(C#N)C#N)cc1	97*	2008	42	-15	0	10	97*
Cc1noc(C)c1COc1ccccc1C(=O)NCCc1ccc(F)cc1	5.3	?	nt	-8	-4	0	7
COc1ccc(C(=O)OCCc2cc3ccccc3c(=O)o2)cc1	-13	3724	nt	-33	11	8	4
COc1ccc2c(c1)-c1nc(N=Cc3ccccc3O)sc1CC2	6.2	nt	nt	nt	2	4	-9
Cc1[nH]n(C(N)=S)c(=O)c1N=Nc1cc(-c2ccc(Br)cc2)[nH]n1	-2.5	4781	4	-34	7	11	-6
COc1ccc(C(=O)NC(=S)NNC(=O)c2ccc(O)cc2)cc1[N+](=O)[O-]	11	4213	-5	-19	-5	-8	-2
COc1ccccc1C(=O)NNC(=O)c1cccc([N+](=O)[O-])c1	-0.1	4275	1	-28	18	7	4
Cc1ccc(N2CC(C(=O)N/N=C/c3c(F)cccc3Cl)CC2=O)cc1 (stereo unspecified)	nt	5897	3	-11	nt	nt	nt
CCN1CCN(CCC(=O)Nc2ccc(Br)cc2)CC1	8.7	3981	12	-3	9	6	-5
CCOC(=O)C1=C(C)N(C)C(=O)NC1c1c(O)ccc2ccccc12 (stereo unspecified)	1.3	3770	-12	1	-3	8	2
CN(C(=O)CS(=O)(=O)c1cn(CC(=O)N2CCCCC2)c2ccccc12)c1ccccc1	1.4	5501	4	-6	-3	6	6
Cc1ccc(NC(=O)CN2C(=O)S/C(=C/c3ccncc3)C2=O)cc1	nt	5196	-1	-9	nt	nt	nt
CCCn1nc(C(=O)Nc2nc(-c3ccccn3)cs2)c2ccccc2c1=O	23	6130	nt	24	1	2	4
COc1ccc(CCC(=O)Nc2nc3ccccc3[nH]2)cc1OC	12	3399	-6	-26	1	9	6
Cc1cc(C)c(C)c(S(=O)(=O)N2CCN(C(=O)c3cc(S(=O)(=O)N4CCOCC4)ccc3F)CC2)c1C	6.7	4326	nt	-7	3	-1	8
CCn1c(CCc2ccccc2)nnc1SCC(N)=O	2.7	3042	16	-12	3	4	5
CC(C)C(NC(=O)c1ccccc1F)C(=O)NCc1ccc(S(=O)(=O)N2CCOCC2)cc1 (stereo unspecified)	2.1	4236	nt	-12	5	-7	3

# High-throughput results (PubChem BioAssay)
